GIV Gai3 FP: blocks GIV peptide binding to rat Galpha-i3; Galpha-i3/FITC-GIV peptide fluorescence polarization, 90 min; stronger effect = lower value; scaled: aluminum fluoride 0%, vehicle 100%; percent of control (FP), % (test concentration not listed); actives 0.42% (n = 210,000); AID 1224905;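 active = replicate mean at 85% of control or lower, very high polarization wells dropped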;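 note: wells of about 15 µL received 100 nL stock; the first replicate is given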
Target sequence (P08753 whole entry, looked up): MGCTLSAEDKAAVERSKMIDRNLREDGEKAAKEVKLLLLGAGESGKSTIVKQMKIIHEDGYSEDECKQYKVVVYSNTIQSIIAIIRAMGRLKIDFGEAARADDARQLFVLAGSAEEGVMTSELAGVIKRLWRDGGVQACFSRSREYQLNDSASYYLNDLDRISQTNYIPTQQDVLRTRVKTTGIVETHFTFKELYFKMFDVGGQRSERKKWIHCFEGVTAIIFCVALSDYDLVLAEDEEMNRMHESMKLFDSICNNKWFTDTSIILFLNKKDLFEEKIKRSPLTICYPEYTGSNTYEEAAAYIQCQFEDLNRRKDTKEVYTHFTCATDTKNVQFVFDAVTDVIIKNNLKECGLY
HCMV NEC inh: inhibitors of HCMV UL50-UL53 nuclear egress complex interaction; actives 0.15% (n = 190,000); HTRF UL50-UL53 interaction, normalized percent inhibition; AID 1918969; inhibition, % (concentration not given with the values);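 active = both replicates at 50% or more, plus weaker picks with an unusually low signal ratio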;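 note: stock transfer was 100 nL into about 20 µL; 0% = negative control wells and 100% = wells with untagged competitor protein; inactives centre near -12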
Sa growth inh: S. aureus growth inhibition | S. aureus RN4220 growth, OD600, 20 h, 42 °C; stronger effect = lower value | relative growth, % (no concentration beside the values) | actives 0.53% (n = 170,000) | AID 720641;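 active = growth at 42 °C up to 50% and 20 or more points under that at 30 °C, or under 10% at both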;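 note: 300 nL library stock went into each well; scaled to the means of positive and negative controls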
Sa growth inh second temp: further read-out of Sa growth inh, marked with its call; relative growth, %; measured here: growth at 30 °C;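 optical density after 20 h as mean of two plates; 100% = untreated growth and lower means inhibition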
Numbers without * were called inactive; nt = not tested or not shown; & = joins results of further samples. Rows were taken by chance (roughly 0.82% active in at least one column).

Start of the data: the first three records, ahead of the listing:
SMILES	GIV Gai3 FP	HCMV NEC inh	Sa growth inh	Sa growth inh second temp
O=C(c1ccc(Br)s1)N(Cc1cccnc1)c1nc2ccc(F)cc2s1	102.4	nt	103.4	90.2
COc1ccc2cc3c(=O)n(-c4ccc(C(=O)O)cc4)nc-3oc2c1	98.4	6.2	nt	nt
O=C(CC12CC3CC(CC(C3)C1)C2)Nc1ccc(-c2nc3ncccc3o2)cc1	96.4	11.8	102.7	105.1

All compounds of this part, previewed entries included:
SMILES	GIV Gai3 FP	HCMV NEC inh	Sa growth inh	Sa growth inh second temp
O=C(c1ccc(Br)s1)N(Cc1cccnc1)c1nc2ccc(F)cc2s1	102.4	nt	103.4	90.2
COc1ccc2cc3c(=O)n(-c4ccc(C(=O)O)cc4)nc-3oc2c1	98.4	6.2	nt	nt
O=C(CC12CC3CC(CC(C3)C1)C2)Nc1ccc(-c2nc3ncccc3o2)cc1	96.4	11.8	102.7	105.1
Cc1nc2nc3c(c(N4CCN(c5ccc(F)cc5)CC4)n2n1)CCCC3	101.0	-20.1	nt	nt
CCOc1ccc(CNC(=O)Cn2ccc3cc(S(=O)(=O)N4CCCCCC4)ccc32)cc1	98.0	nt	105.4	98.5
CCN1C(=O)c2ccc(C(=O)Nc3ccc(C(=O)O)cc3)cc2C1=O	97.4	-67.5	105.4	92.3
O=C(Nc1ccc(F)cc1)c1cn(-c2ccccc2)cn1	112.7	-32.7	nt	nt
CCNC(=O)N(C)Cc1nc(-c2ccc(OC)cc2)no1	105.0	-9.4	103.3	87.2
Cc1cc(NC(=O)CCCCCN2CCOCC2)no1	99.7	-9.4	101.0	95.3
Cc1cccc(C(=O)Nc2ccc3oc(-c4cccc5c(Br)cccc45)nc3c2)c1	97.6	-31.3	93.6	86.5
O=C(CCN(/N=C/c1ccco1)C1=NS(=O)(=O)c2ccccc21)NC1CCCCC1	110.7	-19.9	100.9	75.3
COc1cc2c(=O)n(Cc3ccc(C(=O)NC4CC4)cc3)c(=O)n(Cc3ccccc3Cl)c2cc1OC	105.8	0.1	nt	nt
CSc1nc2cc(C)nn2c(-c2ccccc2)c1C#N	103.7	-5.3	107.2	82.3
Cc1cc2cc(CNC(=O)C3CCCCC3)ccc2[nH]1	102.5	nt	81.3	73.9
COc1ccccc1NC(=O)C1CCCC1	nt	-15.5	62.7	86.6

The final 7 compounds of the part above come first, to join the parts:
SMILES	GIV Gai3 FP	HCMV NEC inh	Sa growth inh	Sa growth inh second temp
Cc1cc(NC(=O)CCCCCN2CCOCC2)no1	99.7	-9.4	101.0	95.3
Cc1cccc(C(=O)Nc2ccc3oc(-c4cccc5c(Br)cccc45)nc3c2)c1	97.6	-31.3	93.6	86.5
O=C(CCN(/N=C/c1ccco1)C1=NS(=O)(=O)c2ccccc21)NC1CCCCC1	110.7	-19.9	100.9	75.3
COc1cc2c(=O)n(Cc3ccc(C(=O)NC4CC4)cc3)c(=O)n(Cc3ccccc3Cl)c2cc1OC	105.8	0.1	nt	nt
CSc1nc2cc(C)nn2c(-c2ccccc2)c1C#N	103.7	-5.3	107.2	82.3
Cc1cc2cc(CNC(=O)C3CCCCC3)ccc2[nH]1	102.5	nt	81.3	73.9
COc1ccccc1NC(=O)C1CCCC1	nt	-15.5	62.7	86.6
CCN(CC)S(=O)(=O)c1ccc2c(c1)c(=O)c(C(=O)N1CCCC1)cn2C	109.2	2.6	108.3	92.3
CC(C)c1ccc(NC(=O)C(c2ccccc2)N2CC(=O)Nc3ccccc32)cc1 (configuration not stated)	103.2	nt	120.8	72.9
O=C(COc1ccccc1Cl)Nc1nnc(S(=O)(=O)N2CCCCCC2)s1	95.6	13.1	104.3	93.6
Cc1[nH]c(-c2ccc(F)cc2)cc1C(=O)N1CCC(C)CC1	114.4	2.8	nt	nt
Cc1cccc(N(C(=O)c2cnc3n(c2=O)CCS3)C2CCCCC2)c1	100.0	-29.3	88.7	78.4
O=C(NCCC1=CCCCC1)c1cnc2sc3c(n2c1=O)CCCCC3	104.2	-21.1	nt	nt
CCc1ccccc1-n1c(C)nc2cc(C(=O)NCCc3ccc(Cl)cc3)ccc21	100.5	nt	95.9	49.8
c1ccc2oc(SCCSc3nc4ccccc4o3)nc2c1	nt	-6.5	104.7	77.8
CSc1nc(C=Nc2ccc(Cl)cc2Cl)ccc1C#N	105.5	9.3	91.8	85.5
Cc1c(OC(=O)c2ccccc2)ccc2c3c(c(=O)oc12)CCC3	108.6	9.9	83.3	89.0
N#CC1=C(N)Oc2c(c(=O)oc3ccccc23)C12C(=O)Nc1ccc(Br)cc12 (configuration not stated)	103.9	-9.6	nt	nt
O=C(O)C(NS(=O)(=O)c1cccc2cccnc12)c1ccccc1 (configuration not stated)	nt	-1.7	111.5	95.4
COc1ccc(NCc2cccn2-c2nnc(N3CCOCC3)s2)cc1OC	108.3	nt	66.1	87.8
COc1ccc(OCc2nn3c(-c4ccc5ccccc5n4)nnc3s2)cc1	109.6	-17.1	nt	nt
COc1ccc(Nc2nc(SC)nc(-c3ccccc3)c2C#N)cc1OC	99.5	-13.3	105.5	90.4
c1cc(C2OCC3(CO2)COC(c2ccncc2)OC3)ccn1 (configuration not stated)	102.7	nt	104.3	86.2
COc1ccc(NC(=O)CCc2c(C)noc2C)cn1	nt	-8.2	105.8	96.6
Sc1ccc2c(c1)OCCCO2	nt	-13.9	99.6	101.2
CCNS(=O)(=O)c1ccc(NC(=O)c2cncc(Br)c2)cc1	96.9	-0.7	83.9	84.5
CCOc1ccc(NC(=O)C2Nc3ccc(Cl)cc3S(=O)(=O)N2)cc1 (configuration not stated)	100.7	0.7	nt	nt
Cc1ccc(NC(=O)CSc2nc3ccccc3n2CC(=O)N(C)C2CCCCC2)cc1C	105.9	nt	92.6	86.7
COC(=O)c1ccc(CSc2nc3sc4c(c3c(=O)n2C)CCC4)cc1	108.1	2.3	nt	nt
Cc1ccc(C)c(S(=O)(=O)c2nnn3c2nc(Nc2ccc(C)c(C)c2)c2sccc23)c1	97.9	nt	103.7	77.3
CN(C)c1cccc(C(=O)NC2CCCc3ccccc32)c1 (configuration not stated)	nt	-27.9	74.0	90.5
CC1(C)C=C2C(=NN(c3ccccc3)C(N)=C2C#N)CO1	82.8*	-39.9	74.8	65.5
Cc1cc(C)c(NC(=O)C(C)n2nnc3sc(-c4ccccc4)cc3c2=O)c(C)c1 (configuration not stated)	106.4	2.3	87.5	87.8
CC(C)NC(=O)c1ccccc1NC(=O)c1nsc2ccccc12	105.6	nt	136.0	74.0
NC(=O)C1CCN(c2ccnc3cc(Cl)ccc23)CC1	nt	-44.6	106.1	94.9
CCN1CCCC1CNC(=S)Nc1cccc(C)c1 (configuration not stated)	nt	-33.3	75.8	97.5
O=C(c1nn(-c2ccccc2)c(=O)c2ccccc12)N1CCN(c2ccccc2)CC1	nt	-12.2	99.8	94.3
Cc1ccc(C(=O)c2oc3ccccc3c2NC(=O)COc2ccc(Cl)c(C)c2)cc1	104.5	-19.5	83.9	89.5
Cc1cccc(N2C(=O)CSC23C(=O)N(CC(=O)NCCc2ccccc2)c2ccccc23)c1 (configuration not stated)	99.8	nt	136.3	103.1
CCCCc1nn2c(=O)cc(COC(=O)COc3ccc(C)cc3)nc2s1	103.7	nt	111.2	92.6
CN1c2ccsc2C(=O)/C(=C\Nc2cccc(C(F)(F)F)c2)S1(=O)=O	100.9	-3.8	87.4	100.4
O=C(O)c1c2c(nc3ccc(S(=O)(=O)N4CCC(C(=O)NCc5ccccc5)CC4)cc13)CCCC2	101.0&115.4	1.7	99.3	89.9
CCOC(=O)N1CCc2c(sc3c2c(=O)n(Cc2ccccc2)c(=O)n3CC(=O)Nc2ccc(C)cc2C)C1	107.2	-3.4	111.7	83.6
COc1ccc(CNC(C(=O)NC(N)=O)C(C)C)cc1OC (configuration not stated)	nt	-10.6	108.3	97.3
CC(C)Cn1c(=O)c2ccccc2n2c(CCC(=O)N3CCN(c4ccccc4F)CC3)nnc12	104.7	0.7	101.1	80.3
Cc1csc(=Nc2ccc(S(=O)(=O)N3CCOCC3)cc2)n1Cc1ccco1	nt	7.8	107.0	92.8
C=CCSc1nnc(NC(=O)c2cn(-c3ccccc3)nc2-c2ccccc2)s1	nt	-9.5	100.1	79.4
C=CCSc1nnc(Cc2c(C)[nH]c3ccccc23)o1	101.1	nt	97.1	81.6
CCOc1ccc(S(=O)(=O)N(CC(=O)NCCc2ccc(OC)c(OC)c2)c2ccccc2)cc1	105.6	-34.4	95.9	88.8
O=C(Nc1cccc([N+](=O)[O-])c1)c1ccc(Br)c(S(=O)(=O)N2CCC(C(=O)O)CC2)c1	99.4	-64.0	nt	nt
CON(C)S(=O)(=O)c1cc(C(=O)OC(C)C(=O)Nc2ccc(N3CCOCC3)cc2)ccc1Cl (configuration not stated)	nt	5.3	101.7	103.7
CCCCC1(CC(=O)N2CCCCC2)C(=O)N(c2ccccc2)N(c2ccccc2)C1=O	99.9	-1.5	104.9	92.2

Structural class, those above containing a furan ring, fused or not (3)
SMILES	GIV Gai3 FP	HCMV NEC inh	Sa growth inh	Sa growth inh second temp
O=C(CCN(/N=C/c1ccco1)C1=NS(=O)(=O)c2ccccc21)NC1CCCCC1	110.7	-19.9	100.9	75.3
Cc1ccc(C(=O)c2oc3ccccc3c2NC(=O)COc2ccc(Cl)c(C)c2)cc1	104.5	-19.5	83.9	89.5
Cc1csc(=Nc2ccc(S(=O)(=O)N3CCOCC3)cc2)n1Cc1ccco1	nt	7.8	107.0	92.8

(further entries)
SMILES	GIV Gai3 FP	HCMV NEC inh	Sa growth inh	Sa growth inh second temp
COCCNC(=O)c1ccc(CS(=O)c2cccc(C)c2)o1 (configuration not stated)	102.6	-35.1	84.4	87.7
Cc1oc2ncnc(N3CCCCC3)c2c1C(=O)NCC1CCN(Cc2ccccc2F)CC1	106.8	nt	94.9	96.6
O=C(c1ccc2c(c1)CCCN2S(=O)(=O)c1ccccc1)N1CCc2ccccc2C1	103.3	-18.1	nt	nt
CCNc1nc(NCC)nc(SCCOc2ccc(Br)cc2)n1	98.3	nt	85.3	83.0
O=C1NNC(SCc2ccc(Br)cc2)=Nc2ccccc21	100.2	-4.1	100.2	92.6
Cc1nn(-c2ccccc2)c(OC(=O)c2ccc(Br)cc2)c1S(=O)(=O)c1ccccc1	113.5	19.5	98.7	89.9
CCOC(=O)c1c(S(=O)(=O)N2CCCC2)c(C)n(C)c1C	108.4	-18.3	99.9	92.3
COc1cccc(-c2nnc3sc(CN4CCCCC4)cn23)c1	101.5	nt	102.4	81.9
COCCNC(=S)N1CCC(NC(C)=O)CC1	103.5	-15.1	113.5	82.5
CCc1ccc(NC(=O)CSc2nc(=O)n(CCN3CCOCC3)c3c2CCC3)cc1	97.0	-27.8	83.0	88.8
NC(=S)c1cc2ccc(O)cc2oc1=O	124.3	-107.4	77.2	31.4
CC(C)C(=O)Nc1nc2cc(NC(=O)c3cc4cc(Cl)ccc4[nH]3)ccc2s1	107.4	-3.1	nt	nt
CC(C)Cc1nn2c(=O)cc(COC(=O)c3cccc(NC(=O)c4cccs4)c3)nc2s1	101.9	nt	110.5	89.3
CC(C)(C)C(=O)C(O)C(C)(C)C (configuration not stated)	102.8	17.5	98.7	105.6
CCn1c(=O)cc(SCC(=O)Nc2cccnc2)c2ccccc21	96.0	nt	87.8	69.4
COc1cccc(CN(C)C(=O)c2ccc3ccccc3n2)c1OC	nt	-11.3	112.1	85.1
CCOC(=O)N1c2ccccc2CC1C (configuration not stated)	101.9	17.1	99.1	98.2
CCOCc1cc(C)[nH]n1	102.3	6.4	99.8	75.3
Cc1[nH]c2ccc(C(=O)NCCCN3CCCCC3)cc2c1C	105.2	nt	106.6	99.3
COc1cc2c(cc1OC)C(COc1ccccc1OC)N(C(=O)c1ccccc1OC)CC2 (configuration not stated)	103.6	nt	92.6	85.3
O=C(c1ccco1)N1CCN(c2c3c(nc4nncn24)CCC3)CC1	103.8	-10.3	94.9	86.0
FC(F)(F)c1cc(-c2ccccc2)nc(NCC2CCCO2)n1 (configuration not stated)	100.1	3.2	102.8	62.7
O=C(CCCN1C(=O)S/C(=C/c2ccccc2)C1=S)NC12CC3CC(CC(C3)C1)C2	nt	-7.9	84.8	83.2
O/N=C/c1cc(Br)cs1	99.8	-19.8	112.2	92.8
COc1ccc(CC(=O)Nc2cccc(-c3nnc(-c4ccco4)o3)c2)cc1	101.0	nt	113.8	86.3
Nc1ccccc1C(=O)NCC(=O)O	nt	1.7	77.8	92.3
CCCCOC(=O)c1ccc(NC(=O)c2cc3c(=O)n4cccc(C)c4nc3n2C)cc1	100.8	-32.5	101.2	89.2
NC(=O)/C(=N\OC(=O)c1ccco1)c1nc(-c2ccc(Br)cc2)cs1	nt	-39.7	97.2	88.8
